Beta cell apopt: blocks beta cell apoptosis; INS-1E cytokine-induced death, ATP luminescence, 48 h; percent of positive-control rescue, neutral wells zero; protection from apoptosis, % (concentration not given with the values); 0.8% of 300,000 active; AID 435005;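 active means all replicates at 75% or more, or half of them and the mean; inconclusive means half reach 75% but not the mean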;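 further: 0% = cytokine-treated negative control wells and 100% = positive control rescue; higher means more ATP so stronger rescue from cytokine killing; wells of about 40 µL received 100 nL stock; the first replicate is given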
RanGTP-Impb inh: inhibitors of RanGTP-importin-beta interaction, primary screen, biochemical, FRET, CFP-Ran, YFP-importin-beta, homogeneous. cell-free CFP-Ran/YFP-importin-beta FRET ratio. inhibition, % (no concentration beside the values). 1.1% of 300,000 active. AID 2216;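 active means most replicates above 15%; inconclusive means exactly half above 15%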;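 further: 0% = DMSO wells and 100% = Ran loaded with GDP instead of GTP; wells of about 40 µL received 100 nL stock; the first replicate is given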
AF4-AF9 inh: inhibitors of human MLL-AF4/AF9 interaction. inhibition, % at 10 µM. AID 651704. 0.47% of 350,000 active. AlphaScreen, biotin-AF4 peptide binding to FLAG-AF9. P42568;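 active means every replicate reaching a set inhibition limit, whatever the replicate mean, cut at about 25% in these data; inconclusive means mean inhibition reaches that limit but some replicates miss it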;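 further: 0% = plate neutral control median and 100% = total signal loss; the record names both 10 and 1 µM as test concentration; the first replicate is given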
Target sequence (P42568 whole entry, looked up): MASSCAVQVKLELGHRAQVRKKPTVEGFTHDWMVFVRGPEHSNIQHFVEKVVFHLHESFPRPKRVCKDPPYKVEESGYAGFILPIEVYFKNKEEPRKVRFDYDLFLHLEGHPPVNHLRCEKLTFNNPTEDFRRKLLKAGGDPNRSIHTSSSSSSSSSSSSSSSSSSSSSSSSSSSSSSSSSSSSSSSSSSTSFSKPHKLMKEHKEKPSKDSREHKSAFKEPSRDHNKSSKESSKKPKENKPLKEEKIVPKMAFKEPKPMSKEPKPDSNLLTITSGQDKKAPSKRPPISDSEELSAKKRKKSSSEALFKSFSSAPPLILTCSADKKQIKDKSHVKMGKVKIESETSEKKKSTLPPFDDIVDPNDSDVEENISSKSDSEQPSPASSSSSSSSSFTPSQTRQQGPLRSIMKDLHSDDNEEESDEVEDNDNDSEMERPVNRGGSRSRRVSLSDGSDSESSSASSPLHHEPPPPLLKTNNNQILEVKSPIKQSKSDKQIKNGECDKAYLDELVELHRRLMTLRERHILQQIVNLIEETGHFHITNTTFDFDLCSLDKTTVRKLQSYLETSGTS
Vif TR-FRET: inhibitors of Vif binding to APOBEC3G peptide, primary screen, biochemical, TR-FRET, GST-Vif 1-94, biotin-A3G peptide, dose response retest (AID 1117319). 0.57% of 260,000 active. TR-FRET GST-Vif / biotin-A3G peptide binding; higher % means a stronger effect; test concentration not given here; strong numbers were not always called active. inhibition, %, or IC50 in µM where a hit was titrated;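 active means above the screen mean plus three standard deviations and confirmed in dose response; inconclusive means results disagree or hit not tested in dose response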;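 further: Vif residues 1-94 fused to GST binding biotinylated APOBEC3G peptide 110-148; 0% = full assay without inhibitor and 100% = GST in place of GST-Vif; retest series ran down from 100 µM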
Calb FLC: C. albicans growth modulation with fluconazole | C. albicans CaCi-2 (fluconazole-resistant clinical isolate) + fluconazole, Alamar Blue growth, 48 h | growth inhibition, % (test concentration not listed) | 0.57% of 300,000 active;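 active means most replicates above 75%; inconclusive means exactly half above 75%; inactive means most below 75%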;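 further: all wells also contain fluconazole at 8 µg/ml as a sub-toxic cotreatment; 0% = median of DMSO wells and 100% = median of geldanamycin control wells; wells of about 8 µL received 7.5 nL stock; the first replicate is given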
LANA-H2A inh: blocks KSHV LANA binding to histone H2A/H2B; cell-free LANA-H2A/H2B peptide, fluorescence polarization; Q9QR71; 0.6% of 320,000 active; AID 2629; inhibition, % (test concentration not listed); in the data active means inhibition mostly above about 10%, no sharp cut-off; inactive means mostly below about 6.7%;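 further: stock transfer was 7.5 nL into about 10 µL; 0% = median of vehicle wells and 100% = median of positive control wells; one replicate is shown; the record names a cut of 25% in any replicate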
T cruzi repl: T. cruzi replication inhibition; T. cruzi beta-gal in NIH3T3, luminescence, 90 h; inhibition, % (no concentration beside the values); 1.4% of 300,000 active;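 active means mean inhibition across valid replicates above about 55%, limit read from the data; inconclusive means mean below that limit but half or more replicates reach it; inactive means mean below it, under half of replicates reach it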;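 further: signal also drops with host cell toxicity which is not excluded here; 0% = plate median of DMSO wells and 100% = zero luminescence signal; higher percent means less beta-gal luminescence so fewer parasites; stock transfer was 50 nL into about 50 µL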
A1 inh: inhibitors of the anti-apoptotic protein A1, read as caspase activation; caspase activation, % (no concentration beside the values); MEF A1-2A-BIM cells, Caspase-Glo 3/7 luminescence, 3 h; percent of clofoctol response, vehicle zero; 0.066% of 330,000 active;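 active means over half of replicate activation scores above 10%, or exactly half above 10 with the replicate mean above 10; inconclusive means replicate mean below 10 yet half the replicates above 10; inactive means over half of replicates below 10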;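 further: wells of about 30 µL received 50 nL stock; many hits fall short of the cut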
An asterisk follows results filed as active; ? = inconclusive; · = not tested or not shown; & = joins results of further samples. Rows were taken by chance; 4.3% or so of the library scored in one or more.

SMILES | Beta cell apopt | RanGTP-Impb inh | AF4-AF9 inh | Vif TR-FRET | Calb FLC | LANA-H2A inh | T cruzi repl | A1 inh
O=C(N/C(=C\c1ccc([N+](=O)[O-])cc1)C(=O)N1CCCCC1)c1ccco1 | -8 | 4.8 | 1.9 | 2% | 7 | 0.1 | -3 | -0.8
OCn1c2ccccc2c2ccccc21 | -6 | 1.8 | -2.4 | ? | 14 | 3.5 | 0 | 0.6
Cc1ccc(CC(=O)N(C)CC(=O)N(CC(C)C)c2c(N)n(CC(C)C)c(=O)[nH]c2=O)cc1C | -4 | 3.2 | -6.3 | -3% | 2 | 2.2 | -8 | -0.4
O=C(CSc1ccc(-c2ccccc2)nn1)Nc1ccc2c(c1)OCCO2 | -1 | -0.7 | 5.6 | 18% | 1 | -6.4 | 3 | -1.2
CCCNc1nc(C)c(C(C)=O)cc1C#N | 4 | -1.9 | · | 29% | -6 | -1.7 | -10 | -0.7
CC1(C)CC(=O)C2=C(C1)N=C1SCCC(=O)N1C2c1cccc([N+](=O)[O-])c1 (stereo not given) | -5 | -1.0 | 2.8 | -5% | -10 | 8.0 | -14 | -0.8
N#Cc1cc2c(nc1Cl)CCC2 | -4 | 0.3 | -6.4 | -1% | -21 | 1.5 | · | -0.1
Cc1ccc(NS(=O)(=O)c2ccc(CCC(=O)NCc3cccnc3)cc2)cc1 | 3 | -0.5 | -0.1 | ? | -2 | 5.5 | 9 | 1.2
Cc1ccc(OC(=O)CCc2c(C)nc3ncnn3c2C)cc1 | -3 | 1.3 | · | -9% | 7 | 0.5 | 1 | 0.3
Cc1ccc(-c2onc3ccc(C4OCCO4)cc23)cc1 | -2 | · | 4.3 | -3% | 1 | -4.9 | 0 | 0.5
CCc1ccc(CN(C(=O)c2ccco2)C2CCS(=O)(=O)C2)cc1 (stereo not given) | -3 | 4.9 | -0.2 | · | 2 | 7.2 | 3 | 0.1
Cc1cc(=O)oc2cc(NC(=O)C(C)Oc3ccccc3)ccc12 (stereo not given) | 3 | 3.1 | -25 | -3% | 6 | -1.5 | 14 | 0.0
CCOC(=O)c1ccc(NC(=S)NCc2ccccc2)cc1 | 0 | 1.5 | -1.8 | · | -8 | 0.1 | -8 | 0.1
CC(C)[C@H](NC(=O)c1ccccc1)C(=O)OCc1nnc(-c2ccccc2)o1 | · | -5.1 | -1.0 | -3% | 21 | 1.6 | -6 | -0.4
CCOc1ccccc1-c1nc(C(N)=O)c2[nH]c(=O)n(-c3ccc(F)cc3)c2n1 | 7 | 3.0 | -1.3 | ? | -1 | -5.6 | -16 | 0.8
COc1ccc(C)cc1N(CC(=O)N1CCCCCC1)S(=O)(=O)c1ccccc1 | 0 | -3.6 | 1.3 | · | -6 | -0.9 | 3 | -0.3
Cc1ccc(C(C(=O)NC2CCCC2)N(CCCO)C(=O)Cn2nnc(-c3ccc(C)o3)n2)cc1 (stereo not given) | -7 | -1.8 | -3.5 | · | -17 | -5.6 | 6 | -0.9
Cc1coc2c(C)c3oc(=O)c(CCC(=O)NCCCN4CCOCC4)c(C)c3cc12 | 5 | ? | 0.6 | · | -5 | 2.9 | -27 | -0.5
COc1ccc(-c2noc3c2-c2nc(-c4ccccc4C)sc2CC3)cc1 | 1 | -0.5 | -2.5 | · | 0 | -0.6 | -4 | -0.2
O=C(c1ccc(Cl)c(S(=O)(=O)N2CCCCCC2)c1)N1CCN(c2ccc(O)cc2)CC1 | 6 | · | 8.4 | -5% | · | 0.6 | · | 0.2
COC(=O)c1sc(N)c(C(=O)OC)c1COC(=O)C12CC3CC(CC(O)(C3)C1)C2 | 2 | 1.0 | 1.6 | · | -6 | -0.8 | 9 | -0.7
CC1CCc2sc(C(=O)NC(C)C3CCCO3)cc2C1 (stereo not given) | 6 | -9.2 | -1.6 | -2% | -6 | 6.7 | 8 | -0.8
COc1ccccc1/C=C/C(=C1/C(=O)N(c2ccccc2)N=C1C)c1ccc(C)cc1 | 8 | -1.0 | · | -3% | -4 | 1.9 | -6 | -0.8
CN1C(=O)S/C(=C/c2ccccc2OCc2ccc(C(=O)O)cc2)C1=O | -7 | -4.9 | -2.0 | 4% | 4 | -6.9 | -2 | -0.1
O=C1CC(NCc2ccc3c(c2)OCO3)C(=O)N1Cc1ccc2c(c1)OCO2 (stereo not given) | -5 | · | · | 20% | · | -0.4 | · | 0.1
Cc1ccc2c(c1)cc1c(=O)n(CC(=O)N3CCCC3)nc(C)n12 | -8 | -1.1 | · | -1% | 2 | 2.7 | -12 | 1.1
COc1ccccc1NC(=O)c1ccc(COc2ccc3c(c2)CCC3)cc1 | -5 | 3.0 | 0.8 | · | -5 | 0.5 | -19 | 0.7
CCN(Cc1ccccc1)C(=O)CCS(=O)(=O)c1ccc2c(c1)n(C)c(=O)c(=O)n2C | 9 | -7.1 | -4.7 | · | 0 | 4.8 | -8 | 0.4
CCN(CC(=O)Nc1ccc2c(c1)OCCO2)CC(=O)Nc1ccccc1C(F)(F)F | -4 | · | -0.6 | · | · | -4.6 | · | -0.8
CCOC(=O)c1sc(Nc2ccccc2)nc1C | -1 | -1.4 | · | -3% | 0 | -1.1 | -12 | -1.5
O=C(CN(C(=O)Cn1nnc(-c2ccc(F)cc2)n1)c1cnc2ccccc2c1)NCC1CCCO1 (stereo not given) | -5 | 6.3 | 0.5 | -11% | 19 | -1.1 | 1 | 0.8
C=CCON1C(=O)c2ccccc2C1=O | -3 | -4.1 | · | 1% | 3 | 7.6 | -19 | 1.3
COC(=O)c1sccc1NC(=O)c1cccs1 | -4 | -1.7 | -1.7 | · | -1 | -1.5 | -4 | 0.4
Cc1cccc(C(=O)Nc2cccnc2Cl)c1 | -2 | 2.3 | -6.4 | 5% | -11 | 2.3 | -14 | -1.2
CSCC[C@H](NC(=O)[C@H](Cc1ccccc1)n1c(=O)[nH]c2ccccc2c1=O)C(=O)N1CCC(C(=O)O)CC1 | -1 | ? | -1.7 | · | -1 | 0.3 | -10 | 0.4
Clc1cccc(C[n+]2cc(-c3ccccc3)n3c2CCC3)c1 | -3 | -4.1 | · | · | -2 | 2.0 | 64* | 2.1
O=c1cc(CSc2ccccc2)[nH]c2ccccc12 | 2 | -2.1 | -2.6 | -3% | -1 | 1.3 | 0 | 0.6
NS(=O)(=O)c1ccc(CCNC(=O)CN2CCN(c3ccccc3F)CC2)cc1 | -8 | 3.0 | 2.5 | 20% | 0 | -0.4 | -12 | 0.7
Cc1nnc(SCC(=O)NC2CC2)n1CC1CCCO1 (stereo not given) | -3 | 2.7 | -0.7 | -8% | -2 | -2.5 | -1 | 0.5
CCN(CC1COc2ccccc2O1)C(=O)CN1C(=O)NC(C)(c2ccc(C)cc2)C1=O (stereo not given) | -8 | · | 0.2 | · | -6 | 0.1 | 3 | 2.2
Cc1cccc(Oc2ccc(NC(=O)c3ccccc3C(=O)O)cc2)c1C | 1 | 0.5 | 1.8 | · | -31 | 3.2 | -7 | -1.4
CN1C(C(=O)N2CCc3ccccc3C2)=CC(c2ccc(F)cc2)=NS1(=O)=O | -3 | -2.3 | 6.6 | · | 12 | 4.0 | 9 | 0.1
Cc1cccn2cc(CNC(=O)c3ccco3)nc12 | -7 | 0.8 | · | 5% | -7 | -1.5 | -7 | 1.3
CCOC(=O)C1=C(C)N(CCO)C(=O)NC1c1ccccc1 (stereo not given) | -4 | -3.3 | -53 | 8% | 4 | -1.0 | -5 | 1.0
C=CCn1c2ccccc2c2nnc(SCc3ccc4nonc4c3)nc21 | -8 | 2.0 | · | 2% | 1 | -9.5 | -12 | 0.3
Cc1cc(C)cc(NS(=O)(=O)c2ccc(NC(=S)Nc3ccccc3)cc2)c1 | 4 | ? | -0.6 | 4% | -1 | -1.9 | -18 | 0.8
CCOC(=O)Nc1ccc2ncn(C)c(=O)c2c1 | 0 | 0.0 | 1.7 | -3% | 1 | 1.1 | -12 | 0.5
Cc1ccccc1NS(=O)(=O)c1cc2c3c(c1)C(C)C(=O)N3CCC2 (stereo not given) | -3 | 4.6 | 1.3 | 3% | -11 | 1.9 | 0 | -0.7
CC12CCC(C(=O)N(CSC(=S)N/N=C\c3ccccc3Cl)C1=O)C2(C)C (stereo not given) | -3 | -1.7 | · | 2% | 4 | -3.5 | -7 | 0.0
O=C(Oc1ccc(C(=S)N2CCOCC2)cc1Cl)c1ccccc1F | 4 | 2.8 | 8.0 | 3% | -5 | 0.4 | -10 | 1.3
CC1CCN(C2CC(=O)N(c3ccccc3)C2=O)CC1 (stereo not given) | -11 | 0.2 | -9.9 | 3% | -19 | -1.2 | -29 | -0.1
O=[N+]([O-])c1cc(Cl)cc(/C=N/n2cnnc2)c1O | -12 | -1.8 | -3.4 | -6% | -6 | -0.8 | 28 | 0.4
O=C1CCC(C(=O)N2CCCC(Nc3ccc(F)cc3)C2)=NN1 (stereo not given) | · | -1.9 | -0.3 | 7% | -4 | 5.6 | -13 | 1.7
CN(CC(=O)Nc1ccccc1Br)C(=O)c1cccn1C | -3 | · | 6.9 | -3% | 3 | -2.5 | ? | -0.6
COc1ccc(/C=C2\SC(=NCc3ccccc3)N(Cc3ccccc3)C2=O)cc1OC | -3 | 11 | · | 5% | 3 | 12 | 12 | 0.6
CN(C)C(=N)c1n[nH]nc1SCc1ccccc1 | -2 | 1.5 | -0.7 | 5% | -9 | -9.8 | -14 | -0.1
C=C(C)CN=C1SC(C(=O)Nc2sc3c(c2C(=O)OC)CCC3)C(N)=C1C(N)=O (stereo not given) | 0 | -1.0 | 7.0 | -2% | -6 | · | 9 | -0.6
O=C(c1ccc2c(c1)OCO2)C1CCCN(C2CCN(CCc3ccccc3)CC2)C1 (stereo not given) | 1 | ? | 8.1 | 2% | 7 | 1.7 | 69* | 0.4
C=CCNC(=O)C1CC(=O)N(c2ccc(OCC(=O)Nc3ccc(OC)cc3)cc2)C1 (stereo not given) | -1 | 4.6 | · | -2%&-8% | 14 | -3.7 | -6 | -0.5
CCOC(=O)c1ccc(NC(=O)CSc2nncn2-c2cccnc2)cc1 | -8 | 9.0 | -3.6 | -7% | -1 | 3.7 | 5 | -0.1
(next part)
SMILES | Beta cell apopt | RanGTP-Impb inh | AF4-AF9 inh | Vif TR-FRET | Calb FLC | LANA-H2A inh | T cruzi repl | A1 inh
CCCCCOc1ccccc1C(=O)NCCC(=O)O | 1 | 2.9 | · | 4% | 22 | 3.4 | -4 | 0.5
Nc1ccc2c(c1)C(=O)c1ccccc1C2=O | 0 | -4.7 | -1.2 | -1% | 9 | 6.2 | -9 | -1.8
O=C(c1ccc(Cl)cc1)C1CCN(C(=O)N2CCOCC2)CC1 | -1 | -5.1 | · | 4% | -1 | -1.6 | 10 | -0.6
O=C(NC1CCCCC1)c1ccc([N+](=O)[O-])o1 | -14 | 3.0 | · | -6% | 0 | -2.2 | 39 | -0.1

Some of these compounds in order of the Vif TR-FRET value, lowest first.
molecule	Vif TR-FRET
O=C(NC1CCCCC1)c1ccc([N+](=O)[O-])o1	-6%
Nc1ccc2c(c1)C(=O)c1ccccc1C2=O	-1%
O=C(c1ccc(Cl)cc1)C1CCN(C(=O)N2CCOCC2)CC1	4%

From PubChem
